Compound activity as filed in PubChem.
GIV-Gai inh: blocks GIV peptide binding to rat Galpha-i3; P08753; Galpha-i3/FITC-GIV peptide fluorescence polarization, 90 min; stronger effect = lower value; scaled: aluminum fluoride 0%, vehicle 100%; percent of control (FP), % (concentration not given with the values); hit rate 0.42% among 210,000;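 active = replicate mean at 85% of control or lower, very high polarization wells dropped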;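 note: wells of about 15 µL received 100 nL stock; the first replicate is given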
Target sequence (P08753 whole entry, looked up): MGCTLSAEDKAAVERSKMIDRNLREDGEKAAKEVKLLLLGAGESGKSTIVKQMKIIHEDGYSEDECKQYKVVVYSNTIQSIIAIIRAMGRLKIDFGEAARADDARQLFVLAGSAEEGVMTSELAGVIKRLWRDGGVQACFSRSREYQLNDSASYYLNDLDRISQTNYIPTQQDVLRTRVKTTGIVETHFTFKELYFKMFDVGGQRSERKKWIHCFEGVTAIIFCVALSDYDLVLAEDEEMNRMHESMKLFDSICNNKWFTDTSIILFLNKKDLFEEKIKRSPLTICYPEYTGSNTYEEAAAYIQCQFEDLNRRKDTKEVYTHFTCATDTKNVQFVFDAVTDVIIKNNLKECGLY
Sa growth inh: S. aureus growth inhibition; S. aureus RN4220 growth, OD600, 20 h, 42 °C; stronger effect = lower value; AID 720641; relative growth, % (test concentration not listed); hit rate 0.53% among 170,000;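 active = growth at 42 °C up to 50% and 20 or more points under that at 30 °C, or under 10% at both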;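 note: 300 nL library stock went into each well; scaled to the means of positive and negative controls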
HCMV UL50-53 inh: disrupts HCMV UL50-UL53 complex binding. HTRF UL50-UL53 interaction, normalized percent inhibition. inhibition, % (concentration not given with the values). hit rate 0.15% among 190,000. AID 1918969;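 active = both replicates at 50% or more, plus weaker picks with an unusually low signal ratio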;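 note: stock transfer was 100 nL into about 20 µL; 0% = negative control wells and 100% = wells with untagged competitor protein; inactives centre near -12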
Sa growth inh second temp: further read-out of Sa growth inh, marked with its call; relative growth, %; measured here: growth at 30 °C;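 optical density after 20 h as mean of two plates; 100% = untreated growth and lower means inhibition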
* hit, by the source's call; . = no result given; & = joins results of further samples.

SMILES | GIV-Gai inh | Sa growth inh | Sa growth inh second temp | HCMV UL50-53 inh
COc1ccc(-c2[nH]nc(-c3ccccc3)c2-c2ncc[nH]2)cc1 | . | 100 | 75 | -31
CCCCn1nnc(NCc2ccc(-c3ccc(Cl)cc3Cl)o2)n1 | 100 | . | . | 10
N#CC(C#N)=Cc1cccn1-c1ccc(S(N)(=O)=O)cc1 | 100 | 82 | 74 | -67
O=C(CN1C(=O)c2ccccc2S1(=O)=O)NC1CC1 | . | 100 | 92 | -7
O=C(CCc1ccccc1)NCCc1nc2ccccc2[nH]1 | . | 91 | 83 | -47
CC1=CC(C)C(/C=N/O)C(C)C1 (configuration not stated) | 97 | 91 | 92 | -21
O=C(NCC(c1ccccc1)c1c[nH]c2ccccc12)c1ccccc1Cl (configuration not stated) | 102 | . | . | -27
C=C(C)Cn1c(N)cc(=O)nc1SCC(=O)Nc1cccc(C(F)(F)F)c1 | 105 | 110 | 99 | -1
CC(C)(C)C(=O)OCc1nc(-c2ccc(Cl)cc2)cs1 | 102 | 97 | 90 | -17
c1cncc(-c2nc(-c3cccs3)cs2)c1 | . | 121 | 63 | -87
O=C(Nc1cnn(Cc2ccc(F)cc2)c1)c1cc(-c2ccc3c(c2)OCO3)on1 | 106 | 111 | 95 | 3
NC(=S)CC(=S)N1CCOCC1 | . | 72 | 86 | -36
COc1ccc(C/C(=N/N=C(N)N)c2ccc(OC)cc2)cc1 | 104 | 116 | 99 | 12
O=C(c1ccccc1)c1nc2ccccc2[nH]c1=O | . | 94 | 81 | -67
O=S(=O)(Nc1ccc(-c2ccc(N3CCCC3)nn2)cc1)c1ccccc1 | 101 | . | . | -17
COc1cc2ccc(=O)oc2c(OC2OC(CO)C(O)C(O)C2O)c1O (configuration not stated) | . | 104 | 111 | -24
Cc1ccccc1OCC(O)Cn1ccnc1C (configuration not stated) | 105 | 136 | 15 | -16
COc1ccc(-c2csc(NC(C)=O)c2C(=O)O)cc1 | 99 | 126 | 99 | -17
Cc1ccc(C)c(Cn2cnc3onc(C)c3c2=O)c1 | 106 | . | . | -13
CN(C)C=Nc1ccc(OC(F)F)c(Cl)c1 | . | 71 | 47 | -13
Cc1nc(Nc2ccc(NS(=O)(=O)c3ccc(Br)cc3)cc2)cc(N(C)C)n1 | 100 | . | . | -6
Cc1ccsc1CCNC(=O)CCc1nnc2n(CCc3ccccc3)c(=O)c3ccccc3n12 | 97 | 114 | 81 | -1
Cc1nc2ncnn2c(C)c1CCC(=O)N1CCN(c2ccccc2)CC1 | 101 | 108 | 93 | -14
COc1ccc(N2CC(NC(=O)c3ccc4c(c3)OCO4)CC2=O)cc1OC (configuration not stated) | 95 | 119 | 92 | .
CCc1ccc(-c2nc(=S)n(CN3CCN(S(=O)(=O)c4cccs4)CC3)[nH]2)cc1 | . | 75 | 84 | -12

Looked up above.
For HCMV UL50-53 inh, COc1cc2ccc(=O)oc2c(OC2OC(CO)C(O)C(O)C2O)c1O (configuration not stated) has -24
For HCMV UL50-53 inh, O=C(NCC(c1ccccc1)c1c[nH]c2ccccc12)c1ccccc1Cl (configuration not stated) has -27
For Sa growth inh second temp, O=C(Nc1cnn(Cc2ccc(F)cc2)c1)c1cc(-c2ccc3c(c2)OCO3)on1 has 95

Later entries
SMILES | GIV-Gai inh | Sa growth inh | Sa growth inh second temp | HCMV UL50-53 inh
NC(=O)C1CCN(c2ccc(NC(=O)C3CCCC3)c(C(=O)O)c2)CC1 | 100 | . | . | -14
CC(=O)c1cccc(NS(=O)(=O)c2cc3c(cc2C)n(C)c(=O)c(=O)n3C)c1 | 104 | 122 | 90 | .
COC(=O)c1cc2c(s1)CN(Cc1ccc(Cl)cc1)C2 | 119 | 98 | 82 | .
CCSc1nc2n(n1)C(c1ccc(Cl)cc1Cl)C(C(=O)Nc1ccccc1C)=C(C)N2 (configuration not stated) | 99 | 138 | 71 | .
Cc1nc2cccnc2n1-c1cccc(C(=O)NCCN(C)C)c1 | 103 | 99 | 92 | .
CCC1=C(c2ccc(C)cc2)S(=O)(=O)N=C1N1CCC(C(=O)NCCc2cccc(OC)c2)CC1 | 103 | 112 | 68 | -30
N=C1/C(=C/c2ccc(OCc3ccc4c(c3)OCO4)cc2)C(=O)N=C2SC=CN12 | 110 | 135 | 118 | -34
COC(CNC(=O)c1ccc(/C=C2\Sc3ccccc3N(Cc3ccc(F)cc3)C2=O)cc1)OC | 98 | 121 | 93 | .
CSc1nnc(CCCO)n1-c1ccc(Cl)cc1Cl | 100 | 99 | 86 | -17
Cc1ccc(S(=O)(=O)N2CCN(C(=O)[C@@H]3CCCN3C(=O)OC(C)(C)C)CC2)cc1 | . | 113 | 92 | 0
CCN1CCc2nc3ccccc3c(C(=O)Nc3ccc(NC(C)=O)cc3)c2C1 | . | 112 | 93 | 1
O=C(OCCN1CCCCC1)c1ccc(Br)cc1 | 114 | 90 | 74 | -10
O=C(N/N=C1\CCc2ccccc21)c1ccc(F)cc1 | . | 93 | 94 | -13
FC(F)(F)c1cccc(CSC(=S)NC2CC2)c1 | 100 | 96 | 88 | -12
O=C(Nc1ccc(F)cc1F)c1nccnc1Oc1cccc(C(F)(F)F)c1 | 103 | 94 | 81 | -10
N=C1SCC(=O)N1c1ccc(Cl)cc1 | 104 | 85 | 93 | 7
CCC(CC)c1nnc(NC(=O)c2ccc(CSc3ncn[nH]3)cc2)s1 | . | 114 | 79 | -17
O=C(N=Nc1c2ccccc2c2nc3no[nH]c3nc12)c1ccccc1O | 77* | 0.6* | 0.3* | -10
COc1ccc(CN2CCN(C(=O)C3CCC(CNS(=O)(=O)c4ccc(C)cc4)CC3)CC2)c(OC)c1OC (configuration not stated) | 100 | 96 | 90 | -11
Cc1cc(C(=O)COC(=O)C2=NNC(=O)CC2)c(C)n1-c1ccccc1 | . | 98 | 91 | -28
CCOC(=O)c1sc2ncn(CC(=O)Nc3ccc(OC)c(Cl)c3)c(=O)c2c1C | 107 | 97 | 83 | -31
S=c1[nH]c2ccccc2n1Cc1ccccc1 | 102 | 98 | 82 | .
CC(=O)c1ccc(NC(=O)Cn2cc(S(=O)(=O)Cc3ccccc3Cl)c3ccccc32)cc1 | 104 | 113 | 73 | .
CS(=O)(=O)Nc1nc2ccc(NC(=O)c3[nH]nc4c3CCc3ccccc3-4)cc2s1 | 96 | . | . | -34
Cc1ccc(SCc2cc(=O)[nH]c(SCC(=O)n3c4ccccc4c4ccccc43)n2)cc1 | 105 | 116 | 84 | .

Two of these compounds in another layout:
The line under a structure holds: GIV-Gai inh	Sa growth inh	Sa growth inh second temp	HCMV UL50-53 inh
N=C1SCC(=O)N1c1ccc(Cl)cc1
    104	85	93	7
O=C(OCCN1CCCCC1)c1ccc(Br)cc1
    114	90	74	-10

Four structures out of the list, arranged by SMILES length, lowest first.
SMILES | GIV-Gai inh | Sa growth inh | Sa growth inh second temp | HCMV UL50-53 inh
CC1=CC(C)C(/C=N/O)C(C)C1 (configuration not stated) | 97 | 91 | 92 | -21
O=C(Nc1cnn(Cc2ccc(F)cc2)c1)c1cc(-c2ccc3c(c2)OCO3)on1 | 106 | 111 | 95 | 3
CCSc1nc2n(n1)C(c1ccc(Cl)cc1Cl)C(C(=O)Nc1ccccc1C)=C(C)N2 (configuration not stated) | 99 | 138 | 71 | .
CC(=O)c1ccc(NC(=O)Cn2cc(S(=O)(=O)Cc3ccccc3Cl)c3ccccc32)cc1 | 104 | 113 | 73 | .

(more compounds)
SMILES | GIV-Gai inh | Sa growth inh | Sa growth inh second temp | HCMV UL50-53 inh
CCOC(=O)c1cc2ccsc2n1CC(=O)NC1CCCCC1 | 104 | . | . | -27
O=C(Cn1c2ccccc2c(=O)c2cc(Cl)ccc21)Nc1cc(Oc2ccc(F)cc2F)cc([N+](=O)[O-])c1 | 103 | . | . | -21
CC1CN(C(=O)CCn2c(=O)oc3ccccc32)CC(C)O1 (configuration not stated) | 101 | 75 | 93 | .
FC(F)(F)c1ccc(N2CCN(Cn3nnc4ccccc43)CC2)nc1 | 101 | 91 | 86 | -45
COc1cc(-c2ccccc2)nc(N)n1 | 98 | 86 | 80 | -3
COc1cccc(-n2c(=O)c3c(C)c(C(=O)N(C)C)sc3n(Cc3cccc(C)c3)c2=O)c1 | 98 | 87 | 95 | .
CCCNC(=O)CN1C(=O)N(c2ccc(CC)cc2)S(=O)(=O)c2ccccc21 | 94 | 86 | 89 | -33
CNC(=O)c1c(N2CCCC2=O)c2cc(C)ccc2n1C | 102 | . | . | -7
O=C(Cn1c(-c2cccs2)cc2ccccc21)N1CCCCC1 | 103 | 99 | 79 | .
CCCNC(=O)c1cnn(-c2ccccc2)c1-n1cccc1 | 104 | 81 | 80 | .
CN(C(=O)c1cc2c(=O)n3ccccc3nc2n1C)c1ccccc1 | 101 | 111 | 98 | -59
CN(CCOC(=O)C1c2ccccc2Oc2ccccc21)Cc1ccccc1 | 103 | 100 | 93 | .
CN(C)CCNC(=O)c1cc2c(s1)-c1ccccc1OC2 | 102 | 99 | 69 | -92
COc1ccc(N2CC(c3nnc(NC(=O)c4sc5ccccc5c4Cl)s3)CC2=O)cc1 (configuration not stated) | 101 | . | . | -17
NC(=O)C1CCN(C(=O)/C=C/C(=O)O)CC1 | 105 | 99 | 95 | -7
O=c1c2c(nc3n1CCCS3)-c1ccccc1CC21CCCC1 | 96 | 79 | 91 | -39
O=C(O)c1ccc2c(c1)OCCOCCOCCO2 | . | 74 | 87 | -10
CCN(CC)S(=O)(=O)c1ccc(N=c2ccccn2C)cc1 | . | 116 | 91 | -10
C/C(=N\N)c1ccc(Cl)c(Cl)c1Cl | . | 138 | 99 | -27
O=C(CNC(=O)Cc1ccccc1)NCc1ccco1 | 102 | 106 | 93 | -1
CCCCN(c1nc2nc(C)cc(C)n2n1)S(=O)(=O)c1ccccc1 | 104 | . | . | -26
COc1ccc(OC)c(CNCc2c(C(=O)O)n(Cc3cccc(F)c3)c3cc(OC)ccc23)c1 | 99 | 107 | 90 | .
C[C@H](NC(=O)C12CC3CC(CC(C3)C1)C2)C(=O)O | . | 94 | 87 | -22
CCC(=O)Nc1ccc(N2CCOCC2)cc1 | 105 | 98 | 102 | 20
O=C(CSc1ccc(F)cc1)NCCSc1ccccc1 | 102 | . | . | -20

The list goes on.
SMILES | GIV-Gai inh | Sa growth inh | Sa growth inh second temp | HCMV UL50-53 inh
CC(C)(C)C(=O)c1cn(CC(=O)O)c2ccccc12 | 99 | 100 | 104 | .
Cc1nc2ccccc2nc1CSCc1ccco1 | 102 | 94 | 70 | -35
CC(C)n1nc(C(=O)O)c2ccccc2c1=O | . | 103 | 88 | -5
COc1ccccc1CNC(=O)Cn1ncc2c(C)n(Cc3ccccc3Cl)c(C)c2c1=O | 106 | 100 | 84 | -25
CCc1ccc(S(=O)(=O)Nc2ccc(N3CCN(C)CC3)cc2)cc1 | 100 | 97 | 88 | -7
CC1=C(C)CC(C(=O)Nc2ccc3c(c2)oc2ccccc23)C(C(=O)O)C1 (configuration not stated) | . | 116 | 65 | -8
COc1ccc2ccc(OC)c(/C=C3/NC(=O)NC3=O)c2c1 | 100 | 105 | 75 | -44
O=C(/C=C/c1cccs1)NC1CCCC1 | . | 89 | 89 | -64
CCc1ccc(N(CC)C(=O)Cn2c(=O)oc3ccccc32)cc1 | 101 | 81 | 78 | -25
O=c1[nH]cnc2c1[nH]c1ccccc12 | 101 | 101 | 90 | -12
NC1=NC(=Nc2ccc(S(N)(=O)=O)cc2)c2ccccc21 | . | 88 | 98 | -43
COc1ccc(CC(C(=O)O)c2ccccc2)cc1 (configuration not stated) | 111 | 123 | 110 | 5
CCOc1ccc(NC(=O)Cn2c(=O)n(Cc3ccc(C(=O)NCc4ccc5c(c4)OCO5)cc3)c(=O)c3ccccc32)cc1 | 108 | 103 | 87 | -4
O=C(O)c1ccc(-c2n[nH]c(=O)c3ccccc23)cc1 | 94 | 83 | 87 | -11
CCS(=O)(=O)N1CCN(C(=O)c2cc(-c3ccc(OC)cc3)n[nH]2)CC1 | 106 | . | . | -7
CC1CCN(Cc2nc(N)nc(Nc3ccc(Cl)cc3)n2)CC1 | . | 77 | 82 | -18
Cc1cccc(NC(=O)CN2C(=O)c3cccc4cccc2c34)c1C | 103 | 94 | 92 | -30
COC(=O)c1ccccc1NC(=O)CN1C(=O)COc2ccccc21 | 108 | 100 | 89 | -12
Cc1cc(C)cc(NC(=O)Cc2noc3ccccc23)c1 | 101 | 110 | 101 | 3
COc1ccc(NC(=O)CN2CCN(Cc3ccccc3Cl)S2(=O)=O)cc1Cl | 106&99 | 96 | 90 | -3&-29
CCCCC(CC)C1OCC(C)O1 (configuration not stated) | 110 | 97 | 90 | -10
COC(=O)/C(=C(/O)CSc1nnc(C)n1C1CCCCC1)c1nc2ccccc2[nH]1 | . | 97 | 101 | -10
CCOc1ccccc1-c1noc(CCCC(=O)Nc2cc(C(F)(F)F)ccc2Cl)n1 | 113 | 109 | 97 | 3
Cc1cc(C)cc(OC(=O)c2cccnc2)c1 | 104 | 98 | 107 | 15
COC(=O)C1=C(N)OC2=C(C(=O)CC(c3ccccc3)C2)C1c1cccc([N+](=O)[O-])c1 (configuration not stated) | 112 | . | . | 0
Cc1ccc(-c2nn(-c3ccccc3)cc2C(=O)Nc2ccc3c(c2)OCO3)o1 | . | 89 | 82 | -18
O=C1Nc2ccccc2/C1=N/n1c(-c2ccc(Cl)cc2)n[nH]c1=S | . | 54 | 73 | -4
COc1cc(NC(=O)CSc2nc3ncccc3o2)cc(OC)c1 | 103 | 82 | 94 | .
Cc1cccc(-n2c3nc(=O)n(C)c(=O)c-3cc3c(Cl)cccc32)c1C | 104 | 101 | 99 | -32
Cc1nc2scc(-c3ccccc3)c2c(=O)o1 | 101 | . | . | -11

An unsorted share of the library; 0.8% or so of the library scored in one or more.
